Bioassay records (PubChem)
LT uptake inh: anthrax lethal toxin internalization inhibition | Cells, anthrax lethal toxin internalization, FRET ratio (460/530) | Potency, µM (doses to about 40 µM), for the others: at the top dose activity change, negative = inhibition, hits mostly inhibitors | 0.67% of 70,000 active | AID 912; active = well fitted falling ratio curve with the 530 nm signal flat; inconclusive = other ratio curves, or a change in one channel alone; inactive = flat curves in the ratio and both channels; the % refers to the ratio; also: % is scaled to controls: 0 for no effect and ±100 for the full control effect; nearly all actives have a fitted effect of over 50% in size; tested in ME-180 cells; beta-lactamase reporter
Prx2 Sm inh: Schistosoma mansoni Prx2 inhibition; S. mansoni Prx2 activity coupled to TGR/GSH (TGR is thioredoxin glutathione reductase), NADPH fluorescence loss, qHTS; some inactives read as strong as hits; Potency, µM; 0.07% of 65,000 active; AID 448; active means full or partial inhibition curve with a strong effect at the top dose; inconclusive means weaker partial or single-point curve; inactive means no accepted curve; also: series up to 57 µM; many of its hits are not listed in these tables
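qHTS, coupled TGR/Prx2 format; 15 min compound preincubation at RT; reaction started with H2O2 (2.5 mM aliquot); kinetic NADPH fluorescence decrease, ex 365/em 450 nm.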
Numbers without * were called inactive; & = joins results of further samples; [ ] = another dose, or the depositor's remark. Potency is read from the fitted curve at half-maximal effect.

Screening COc1cccc(Cn2c(=O)c(-c3ccc(Cl)cc3)nc3cnc(OC)nc32)c1 returned LT uptake inh inconclusive and Prx2 Sm inh >57.
`NC(=O)C[C@@H](N)c1nn[nH]n1` gave LT uptake inh -5%[8 µM] and Prx2 Sm inh >57.
`Cc1ccc(CNC(=O)CCS(=O)(=O)c2cccc3nsnc23)cc1` gave LT uptake inh -7% and Prx2 Sm inh >57.
`CC(NC(=O)COc1cccc(Br)c1)C(=O)O` (configuration not stated) gave LT uptake inh -3% and Prx2 Sm inh >57.
CCOc1ccccc1C(=O)NCc1ccc2c(c1)OCO2 was read as LT uptake inh inconclusive and Prx2 Sm inh >57.
COC(=O)c1ccc2ncccc2c1 was read as LT uptake inh inconclusive and Prx2 Sm inh >57.
For CC1CC(C)CN(c2ncc3c(n2)CC(c2ccccc2)CC3=O)C1 (configuration not stated) the results were LT uptake inh -18% and Prx2 Sm inh >57.
`CCN(CC)CCN1C(=O)C(=O)/C(=C(/O)c2ccc(C)cc2)C1c1ccncc1` (configuration not stated) gave LT uptake inh -1% and Prx2 Sm inh >57.
`Cc1noc(C)c1COc1ccc(C(=O)NCc2ccccn2)cc1` gave LT uptake inh -8% and Prx2 Sm inh >57.
`CCN(CC)CC[n+]1ccc2c(C)c3[nH]c4ccc(O)cc4c3c(C)c2c1` gave LT uptake inh -2%[8 µM] and Prx2 Sm inh >57.
Screening COc1ccc(N2C(=O)C3C4C=CC(C4)C3C2=O)c(OC)c1 (configuration not stated) returned LT uptake inh inconclusive and Prx2 Sm inh >57.
Screening CC1(C)OC(=O)C(=CNc2ccccc2)C(=O)O1 returned LT uptake inh -10% and Prx2 Sm inh >57.
CCn1c(N)c(C(=O)NC)sc1=S was read as LT uptake inh 7% and Prx2 Sm inh >57.
`Cc1cc(C)c(C#N)c(SCS(=O)c2ccc(C(C)(C)C)cc2)n1` (configuration not stated) gave LT uptake inh inconclusive and Prx2 Sm inh >57.
For CC(C)Cn1c(=O)c2ccccc2c2ccccc2c1=O the results were LT uptake inh inconclusive and Prx2 Sm inh >57.

Quoted at random: two compounds from above.
COC(=O)c1ccc2ncccc2c1 was read as LT uptake inh inconclusive and Prx2 Sm inh >57.
`CCN(CC)CCN1C(=O)C(=O)/C(=C(/O)c2ccc(C)cc2)C1c1ccncc1` (configuration not stated) gave LT uptake inh -1% and Prx2 Sm inh >57.

Additional records follow:
S=c1[nH]nc(Cc2ccccc2)n1-c1ccccc1 was read as LT uptake inh 3% and Prx2 Sm inh >57.
Screening COc1cccc(N2CCN(C(=O)NC3CCCCC3)CC2)c1 returned LT uptake inh 8% and Prx2 Sm inh >57.
For Cc1cc(=O)oc2c(OS(C)(=O)=O)c(OS(C)(=O)=O)ccc12 the results were LT uptake inh -3%[8 µM] and Prx2 Sm inh >57.
Screening COc1ccc(NC(C)=O)cc1NC(=O)CSc1nnc(-c2ccccn2)n1C returned LT uptake inh -8% and Prx2 Sm inh >57.
CC(=O)/C=C(\C)Nc1ccc(-c2cnc(-c3ccccc3)o2)cc1 was read as LT uptake inh inconclusive.
Screening Cn1c(=O)c(-c2cccs2)nc2cnc(N3CCNCC3)nc21 returned LT uptake inh inconclusive and Prx2 Sm inh >57.
Screening CCOC(=O)CCS(=O)(=O)c1nc(-c2ccccc2)cc(C(F)(F)F)n1 returned LT uptake inh inconclusive and Prx2 Sm inh >57.
Cc1ccc(-c2csc3nnc(SCC(=O)NCc4ccc5c(c4)OCO5)n23)cc1 was read as LT uptake inh 8% and Prx2 Sm inh >57.
CC(C)CCn1nnnc1C(c1ccccc1F)N1CCC(C(N)=O)CC1 (configuration not stated) was read as LT uptake inh 5% and Prx2 Sm inh >57.
Screening O=C1COc2ccc(C(=O)NCc3ccc4c(c3)OCO4)cc2N1 returned LT uptake inh 7% and Prx2 Sm inh >57.
`CCn1c(CNC(C)=O)nnc1SCC(=O)c1ccc(Br)cc1` gave LT uptake inh 3% and Prx2 Sm inh >57.
CC(OCC(O)CN(C)CCOc1ccccc1)c1ccc(Cl)cc1 (configuration not stated) was read as LT uptake inh -26% and Prx2 Sm inh >57.
Cc1cc(C)cc(OCC(=O)Nc2ccccc2C(=O)NCc2ccco2)c1 was read as LT uptake inh -7% and Prx2 Sm inh >57.
`Cc1c(C#N)c2ccccc2n1CC(=O)N1CCCC1` gave LT uptake inh 6% and Prx2 Sm inh >57.
For O=C(c1ccco1)N1CCN(c2cccc(Cl)c2)CC1 the results were LT uptake inh -14% and Prx2 Sm inh >57.

Overlap with the part before: 2 compounds; new compounds follow.
`Cc1c(C#N)c2ccccc2n1CC(=O)N1CCCC1` gave LT uptake inh 6% and Prx2 Sm inh >57.
For O=C(c1ccco1)N1CCN(c2cccc(Cl)c2)CC1 the results were LT uptake inh -14% and Prx2 Sm inh >57.
COc1ccc(NC(=O)c2cc(CC(C)C)on2)cc1OC was read as LT uptake inh -5% and Prx2 Sm inh >57.
`Cn1cccc1Cc1nnc(SCC(=O)NCc2ccccc2)n1-c1ccc(F)cc1` gave LT uptake inh -2% and Prx2 Sm inh >57.
CCOc1ccccc1C1C(C(N)=O)=C(C)Nc2nc(CCCO)nn21 (configuration not stated) was read as LT uptake inh -2% and Prx2 Sm inh >57.
`O=C(NCC1CCCO1)c1cc(-c2ccncc2)nc2ccc(S(=O)(=O)N3CCOCC3)cc12` (configuration not stated) gave LT uptake inh 2% and Prx2 Sm inh >57.
Screening CCCCC(CCC(=O)O)(C(=O)OCC)c1csc(N)n1 (configuration not stated) returned LT uptake inh -12%.
For CCOC(=O)CN(C(=O)Cn1nnc(-c2ccc(C)cc2)n1)C(CC)C(=O)NC1CCCC1 (configuration not stated) the results were LT uptake inh 14% and Prx2 Sm inh >57.
For Cn1c(NCCCN2CCOCC2)nc2c1c(=O)n(Cc1ccc(Cl)c(Cl)c1)c(=O)n2C the results were LT uptake inh inconclusive and Prx2 Sm inh >57.
For Cc1[nH]c2ccc(-c3nnc(SCC(=O)NCc4ccco4)n3Cc3ccccc3)cc2c1C the results were LT uptake inh -26% and Prx2 Sm inh >57.
Screening CN(C)c1nc(NCc2ccccc2)nc(Oc2ccc(=O)[nH]n2)n1 returned LT uptake inh -13% and Prx2 Sm inh >57.
For Cc1noc(C)c1COc1ccc(C(=O)OCC(=O)N2CC3(C)CC2CC(C)(C)C3)cc1 (configuration not stated) the results were LT uptake inh 3% and Prx2 Sm inh >57.
Screening COCCn1c(=O)c(-c2ccccc2)nc2cnc(Oc3ccc(OC)cc3)nc21 returned LT uptake inh inconclusive and Prx2 Sm inh >57.
For CC(=O)CC(=O)NC(=NC1CCCCC1)Nc1nc(C)cc(C)n1 the results were LT uptake inh inconclusive and Prx2 Sm inh >57.
`CCOC(=O)Cc1nnc(NC(=O)CSc2nnc3c4ccccc4n(C)c3n2)s1` gave LT uptake inh inconclusive and Prx2 Sm inh >57.
For COc1ccc(OC)c(C2C3CN(C(C)C)CC=C3C(C#N)=C(N)C2(C#N)C#N)c1 (configuration not stated) the results were LT uptake inh inconclusive and Prx2 Sm inh >57.
For Cc1ccc(C(=O)NC2CCS(=O)(=O)C2)cc1S(=O)(=O)N1CCOCC1 (configuration not stated) the results were LT uptake inh -9% and Prx2 Sm inh >57.
`Cc1cccn2c(=O)c3cc(C(=O)NCCCN4CCCC4=O)n(C)c3nc12` gave LT uptake inh 6% and Prx2 Sm inh >57.
Screening O=C(NC1CCCCC1)NC1(C(=O)N2CCN3CCCC3C2)CCCCC1 (configuration not stated) returned LT uptake inh 7% and Prx2 Sm inh >57.
`CCCOC(=O)c1ccc(Oc2c(-c3ccc(O)cc3O)n[nH]c2C)cc1` gave LT uptake inh inconclusive.
`CC(=O)C(C(C)=O)c1c(Cl)c(O)c(O)c2c(C(=O)c3ccccc3)coc12` gave LT uptake inh inconclusive and Prx2 Sm inh >57.
`O=C(CSc1nc2[nH]ncc2c(=O)n1-c1ccccc1)c1ccc2c(c1)OCCO2` gave LT uptake inh inconclusive and Prx2 Sm inh >57.
Screening Cc1cccc(OCc2nnc(SCC(=O)OC3CCCCC3)o2)c1 returned LT uptake inh -1% and Prx2 Sm inh >57.
Screening O=C(NC1CC1)c1ccc(S(=O)(=O)NC2CCCCCC2)cc1 returned LT uptake inh -3% and Prx2 Sm inh >57.
`Cc1nc(N2CCC(C(N)=O)CC2)c2nnn(Cc3ccccc3)c2n1` gave LT uptake inh 0% and Prx2 Sm inh >57.
For O=C(C1CC(=O)N(c2ccc(F)c(Cl)c2)C1)N1CCC2(CC1)OCCO2 (configuration not stated) the results were LT uptake inh 0% and Prx2 Sm inh >57.
For O=C(Nc1ccc(Oc2ccc(NC(=O)C3CCCO3)cc2)cc1)C1CCCO1 (configuration not stated) the results were LT uptake inh 12%.
For Cc1c(C(=O)O)oc2ccc(S(=O)(=O)N3CC(C)CC(C)C3)cc12 (configuration not stated) the results were LT uptake inh -1% and Prx2 Sm inh >57.
COc1cccc(/C(O)=C2/C(=O)C(=O)N(CCN(C)C)C2c2ccccn2)c1 (configuration not stated) was read as LT uptake inh inconclusive and Prx2 Sm inh >57.
For COc1cccc(Nc2ncc3nc(C)c(=O)n(CCC#N)c3n2)c1 the results were LT uptake inh 9% and Prx2 Sm inh >57.
Screening c1cncc(-c2nn[nH]n2)c1 returned LT uptake inh -4% and Prx2 Sm inh >57.
CN1CCN(S(=O)(=O)c2cccc(S(=O)(=O)c3ccc(Cl)cc3)c2)CC1 was read as LT uptake inh -25% and Prx2 Sm inh >57.

Next part; the last 4 above are carried over.
COc1cccc(/C(O)=C2/C(=O)C(=O)N(CCN(C)C)C2c2ccccn2)c1 (configuration not stated) was read as LT uptake inh inconclusive and Prx2 Sm inh >57.
For COc1cccc(Nc2ncc3nc(C)c(=O)n(CCC#N)c3n2)c1 the results were LT uptake inh 9% and Prx2 Sm inh >57.
Screening c1cncc(-c2nn[nH]n2)c1 returned LT uptake inh -4% and Prx2 Sm inh >57.
CN1CCN(S(=O)(=O)c2cccc(S(=O)(=O)c3ccc(Cl)cc3)c2)CC1 was read as LT uptake inh -25% and Prx2 Sm inh >57.
`NS(=O)(=O)c1cc2c(cc1Cl)N[C@@H]([C@@H]1C[C@@H]3C=C[C@H]1C3)NS2(=O)=O` gave LT uptake inh inconclusive and Prx2 Sm inh >57&>57.
COCCn1c(=O)[nH]c2cc(C(=O)NC(C)C)ccc2c1=O was read as LT uptake inh 9% and Prx2 Sm inh >57.
For O=C(Nc1ccc2oc(-c3ccncc3)nc2c1)c1cccs1 the results were LT uptake inh -12% and Prx2 Sm inh >57.
For O=C(CCCN1Cc2ccccc2C1)c1ccc(F)cc1 the results were LT uptake inh -21% and Prx2 Sm inh >57.
For CC1=C(C(=O)Nc2ccccc2)C(c2ccccn2)n2nc(CCCO)nc2N1 (configuration not stated) the results were LT uptake inh 3% and Prx2 Sm inh >57.
`CCCC(c1nnnn1Cc1ccco1)N1CCC(C(N)=O)CC1` (configuration not stated) gave LT uptake inh -10% and Prx2 Sm inh >57.
For C[C@]12CC[C@H]3c4ccc(O)cc4CC[C@@H]3[C@H]1CC[C@@H]2OC(=O)CCC1CCCC1 the results were LT uptake inh -9%[8 µM] and Prx2 Sm inh >57.
Screening Cc1c(C(=O)O)sc2nc3n(c(=O)c12)CCC(C)CC3 (configuration not stated) returned LT uptake inh -1% and Prx2 Sm inh >57.
CCOc1ccccc1N(CC(=O)NCc1ccc(OC)cc1)S(C)(=O)=O was read as LT uptake inh -8% and Prx2 Sm inh >57.
For O=C(CN1CCN(CC(=O)Nc2ccc3c(c2)OCO3)CC1)Nc1ccc(F)cc1 the results were LT uptake inh -12% and Prx2 Sm inh >57.
Cc1nc(-c2ccc(-c3ccc(C(=O)N4CCc5cc6c(cc54)C4(CCN(C)CC4)CO6)cc3)c(C)c2)no1 was read as LT uptake inh inconclusive and Prx2 Sm inh >57&>57.
`CCOC(=O)c1sc2ncn(CC(=O)NCC3CCCO3)c(=O)c2c1C` (configuration not stated) gave LT uptake inh -13% and Prx2 Sm inh >57.
CCCCn1c(=O)c(C(=O)Nc2nc3ccccc3[nH]2)c(O)c2ccccc21 was read as LT uptake inh 6% and Prx2 Sm inh >57.
O=c1ccnc(S/C=C/c2ccccc2)[nH]1 was read as LT uptake inh -15% and Prx2 Sm inh >57.
Screening O=C1C2CC=CCC2C(=O)N1c1ccc(Cc2ccncc2)cc1 (configuration not stated) returned LT uptake inh -3%.
Screening COC(=O)C1=C(C)NC(C)=C(C(=O)OCCN(C)Cc2ccccc2)[C@@H]1c1cccc([N+](=O)[O-])c1 returned LT uptake inh inconclusive and Prx2 Sm inh >57.
For O=C(COc1ccc(S(=O)(=O)NC2CCCCC2)cc1Cl)NCC1CCCO1 (configuration not stated) the results were LT uptake inh inconclusive and Prx2 Sm inh >57.
For Cc1cc(/C=N/n2cnnc2)c(C)n1-c1ccc(Cl)cc1Cl the results were LT uptake inh inconclusive and Prx2 Sm inh >57.
For CCS(=O)(=O)CCn1c([N+](=O)[O-])cnc1C the results were LT uptake inh -16%[3.58 µM] and Prx2 Sm inh >57.
For CCc1nc(SCC(=O)NCc2ccco2)c2c3c(sc2n1)CCCC3 the results were LT uptake inh -8% and Prx2 Sm inh >57.

3 entries already listed, ordered by SMILES length, ascending.
For CCS(=O)(=O)CCn1c([N+](=O)[O-])cnc1C the results were LT uptake inh -16%[3.58 µM] and Prx2 Sm inh >57.
Screening O=C1C2CC=CCC2C(=O)N1c1ccc(Cc2ccncc2)cc1 (configuration not stated) returned LT uptake inh -3%.
Screening COC(=O)C1=C(C)NC(C)=C(C(=O)OCCN(C)Cc2ccccc2)[C@@H]1c1cccc([N+](=O)[O-])c1 returned LT uptake inh inconclusive and Prx2 Sm inh >57.

Not all compounds are listed; rates above refer to the full screens.
